Screening results from PubChem BioAssay.
Menin-MLL FL inh – qHTS Assay for Inhibitors Targeting the Menin-MLL Interaction in MLL Related Leukemias: Competition With Fluorescein Labeled MLL-derived Peptide; Fluorescence polarization, fluorescein-MLL peptide displacement from menin; FP activity change, % at 61.4 µM; 290,000 tested, under 10 active; inconclusive = falling polarisation curve, or a change in total fluorescence; inactive = total fluorescence flat and polarisation flat or rising; no compound was filed as active; the % refers to the polarisation; negative = inhibition;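 also: % of control where 0% means no effect; inhibitors lower the polarisation; unlabelled MLL peptide was the positive control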
gsp antag – qHTS for Antagonists of gsp, the Etiologic Mutation Responsible for Fibrous Dysplasia/McCune-Albright Syndrome: qHTS; gsp-mutant cells, cAMP HTRF, 30 min; control for the full effect not named in the record; Potency, µM (highest dose often 76.9 µM), inactives show top-dose activity change, negative = inhibition, most hits filed as inhibitors; 340,000 compounds, 0.4% hits; active = falling curve of any shape with a large fitted effect; inconclusive = falling curve, mostly with a smaller effect; inactive = flat or rising curve; cell line not stated here;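 also: intracellular cAMP measured with PDE inhibitor Ro 20-1724 present during compound exposure; potency is read from the fitted curve at half-maximal effect; % is scaled to controls: 0 for no effect and ±100 for the full control effect; nearly all actives have a fitted effect of over 65% in size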
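Cells, 2000/well, grown 16–24 h in DMEM 10% FBS with 0.5 mg/ml G418, then compounds plus […] (300 uM addition stock), 30 min at 37C. cAMP read by HTRF (cAMP-d2 and anti-cAMP antibody-K in lysis buffer) after 30 min RT.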
TRPV1 potentiator – HTS Assay for Compounds that Act as Potentiators of the Vanilloid Receptor 1 | Transient receptor potential cation channel subfamily V member 1 (Homo sapiens), Q8NER1 | TRPV1-expressing cells, Fluo-8 calcium influx, capsaicin EC20 potentiation; host cell line not named in the record; control for the full effect not named in the record | potentiation, % at 8.33 µM | 320,000 compounds, 0.02% hits; active means potentiation above 80%; inconclusive means 30% to 80%; inactive means below 30%; also: 0% is about no effect
Target sequence (Q8NER1 whole entry, looked up): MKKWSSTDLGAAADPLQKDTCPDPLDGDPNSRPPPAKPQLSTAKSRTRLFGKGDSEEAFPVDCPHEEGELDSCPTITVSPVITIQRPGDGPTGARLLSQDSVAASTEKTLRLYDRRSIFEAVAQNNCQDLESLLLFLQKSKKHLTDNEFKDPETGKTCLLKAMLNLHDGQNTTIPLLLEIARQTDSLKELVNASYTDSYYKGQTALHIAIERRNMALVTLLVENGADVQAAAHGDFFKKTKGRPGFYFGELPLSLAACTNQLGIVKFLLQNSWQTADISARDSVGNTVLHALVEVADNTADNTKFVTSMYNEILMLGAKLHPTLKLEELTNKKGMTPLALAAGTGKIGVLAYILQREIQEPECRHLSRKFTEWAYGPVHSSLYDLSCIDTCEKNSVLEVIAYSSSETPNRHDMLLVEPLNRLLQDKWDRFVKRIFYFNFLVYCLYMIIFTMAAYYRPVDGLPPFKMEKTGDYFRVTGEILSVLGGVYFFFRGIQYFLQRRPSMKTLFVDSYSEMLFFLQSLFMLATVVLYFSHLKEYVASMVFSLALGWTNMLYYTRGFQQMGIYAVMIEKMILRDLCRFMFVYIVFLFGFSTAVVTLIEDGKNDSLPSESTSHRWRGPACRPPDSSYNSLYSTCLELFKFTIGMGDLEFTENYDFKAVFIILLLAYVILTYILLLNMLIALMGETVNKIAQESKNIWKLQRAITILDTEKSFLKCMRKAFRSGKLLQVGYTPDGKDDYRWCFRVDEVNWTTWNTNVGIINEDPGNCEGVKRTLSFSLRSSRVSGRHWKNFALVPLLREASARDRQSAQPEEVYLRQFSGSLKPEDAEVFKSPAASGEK
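Fluo-8 calcium influx in TRPV1-expressing cells, kinetic read (ex 480/em 520 nm). Compound added and read 3 min for agonist activity, followed by capsaicin at EC20 final and 2 min further read for enhancement.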
ClpP mod – qHTS Assay for Activators of ClpP; ATP-dependent Clp protease proteolytic subunit (Bacillus subtilis (strain 168)), P80244; 340,000 compounds, 1.9% hits; purified B. subtilis ClpP, FRET peptide cleavage, 20 min; Potency, µM (top dose mostly 57.5 µM), for the others: top-dose activity change, negative = active; active = well fitted falling curve with a large enough effect; inconclusive = small, poorly fitted or top-dose-only effect; inactive = no such curve, though single readings can be large or run the other way; also: potency is read from the fitted curve at half-maximal effect; the source files actives as falling curves though it sought activators and does not explain the sign; nearly all actives have a fitted effect of over 65% in size; many hits overshoot -100%
Target sequence (P80244 whole entry, looked up): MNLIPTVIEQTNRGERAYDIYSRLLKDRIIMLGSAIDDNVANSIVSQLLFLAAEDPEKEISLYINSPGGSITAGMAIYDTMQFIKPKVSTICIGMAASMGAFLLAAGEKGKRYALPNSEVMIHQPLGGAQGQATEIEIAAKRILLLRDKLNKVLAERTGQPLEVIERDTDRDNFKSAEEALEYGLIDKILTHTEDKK
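ClpP 10 microg/mL final, pH 8 Tris/KCl buffer with BSA, glycerol, Tween-20; compound pinned in; FRET-FV substrate; RT 20 min; Ex320/Em430; ΔFRET vs ADEP 5.8 microM, DMSO, no enzyme.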
Sfp inh – qHTS Assay for Inhibitors of Bacillus subtilis Sfp phosphopantetheinyl transferase (PPTase); AID 1490, 2009; 4'-phosphopantetheinyl transferase ffp (Bacillus subtilis), Q9F4F7; 310,000 compounds, 3.5% hits; Biochemical Sfp PPTase activity, qHTS; Potency, µM, for inactives: max response, negative = inhibition, usual class: inhibitors; active = well fitted inhibition curve with a large enough effect; inconclusive = small, poorly fitted or top-dose-only effect, or another doubt; inactive = no such curve, though single readings can be large or run the other way;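 also: the enzyme is Sfp with the accession as filed and its product quenches rhodamine fluorescence; potency is read from the fitted curve at half-maximal effect; 0% = enzyme reaction without inhibitor and -100% = no enzyme wells; top concentration of the series not given in the record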
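Fluorescence-quenching assay: 15 nM Sfp-PPTase preincubated 15 min at room temperature with compound, then 5 uM rhodamine-CoA and 12.5 uM BHQ-2-labelled YbbR peptide added. Fluorescence (ex 525/em 598 nm) read at start and after 30 min; difference gives rate.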
gsp agonist – qHTS for Agonist of gsp, the Etiologic Mutation Responsible for Fibrous Dysplasia/McCune-Albright Syndrome: qHTS. gsp mutant cells, cAMP HTRF, 30 min; control for the full effect not named in the record. Potency, µM (series often up to 76.9 µM), for the others: at the highest dose activation (cAMP increase), usual class: activators. 340,000 compounds, 0.13% hits. AID 624287, 2012; active = well fitted activation curve with a large enough effect; inconclusive = small, poorly fitted or top-dose-only effect, or another doubt; inactive = no such curve, though single readings can be large or run the other way; cell line not stated here;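 also: phosphodiesterase inhibitor Ro 20-1724 added with compounds to block cAMP breakdown; potency is read from the fitted curve at half-maximal effect; nearly all actives have a fitted effect of over 60% in size; about a fifth of the inactives were tested at one dose only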
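Cells stably selected in G418 were plated at 2000/well, grown 16-24 hr, then given compounds in DMSO with the PDE inhibitor […] (300 uM solution added) for 30 min at 37C; cAMP was read by HTRF.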
TRPML1 blocker – qHTS for Inhibitors of the Human Mucolipin Transient Receptor Potential 1 (TRPML1); 390,000 compounds, 0.02% hits; Mucolipin-1 (Homo sapiens), Q9GZU1; activity change, negative = inhibition, % (no concentration beside the values); TRPML1-inducible cells, Ca2+ dye fluorescence, FDSS; active compounds read low; inhibition of EC80 agonist-evoked calcium signal; AID 624415, 2012; in the data active means activity change below about -50%; inconclusive means about -30% to -50%; inactive means above about -30%;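 also: stimulus is agonist 54-4 at its EC80 concentration; % is scaled to controls: 0 for no effect and ±100 for the full control effect; compound concentration not given in the record; the text of the record puts the active cut at -80%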
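Tet-induced TRPML1-DL cells loaded with Ca8 no-wash calcium dye were read kinetically on FDSS. Compound addition was followed by EC80 agonist 54-4 (4 uM final); inhibition was read over 110 s.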
Numbers without * were called inactive; ? = inconclusive; nt = not tested or not shown; & = joins results of further samples; [ ] = dose if it differs, or a comment.

Order of values – Menin-MLL FL inh	TRPML1 blocker	ClpP mod	gsp antag	Sfp inh	gsp agonist	TRPV1 potentiator
- Cc1ccc(N2CCN(C(=O)c3ccccc3NC(=O)/C=C\C(=O)O)CC2)cc1
 : 6.4	-3.2	-0.8%	-16.2%	-9.0%	-0.7%	-1.2
- CCC(C)Nc1nc2c(C)cccn2c(=O)c1C=Nc1ccc(OC)cc1 (stereo not given)
 : -0.5	3.7	-2.4%	-0.3%	1.0%	?	1.6
- CN(C)c1nc(-c2cn(CCC#N)c3ccccc23)cs1
 : ?	19.3	-20.7%	?	-25.2%	-11.1%[15.4 µM]	-0.5
- Cc1cc(NC(=O)CCN2C(=O)/C(=C/c3ccccc3F)SC2=S)no1
 : -7.2	nt	nt	nt	-9.8%	nt	3.2
- O=C(COC(=O)c1ccc(F)cc1)Nc1nc2ccc([N+](=O)[O-])cc2s1
 : 1.1	23.1	nt	7.0%	19.4%	27.7%	8.7
- COc1ccc(N2CC(C(=O)Nc3ccc4c(c3)OCCO4)CC2=O)cc1 (stereo not given)
 : -3.1	-6.7	nt	0.8%	10.7%	-14.4%[15.4 µM]	-15.8
- c1ccc(Oc2cccc(CN3CCCCC3)c2)cc1
 : -0.3	-4.1	-13.8%	0.5%	-2.6%	-9.0%	-10.2
- Cc1noc2ncnc(SCc3ccc(C(F)(F)F)cc3)c12
 : 2.3	-0.6	0.0%	0.0%	1.9%	11.1%[15.4 µM]	-13.3
- CCCN(CC(=O)Nc1ccccc1C)C(=O)C1CCCN(C(=O)c2ccc(Cl)cc2)C1 (stereo not given)
 : nt	19.9	-1.6%	-4.8%	nt	0.0%	-6.3
- CC(=O)N1N=C(c2ccccc2)CC1c1cccs1 (stereo not given)
 : -9.0	-8.8	nt	-4.1%	7.0%	0.8%	-0.3
- CN(Cc1cnc2nc(N)nc(N)c2n1)c1ccc(C(=O)NC(CCC(=O)O)C(=O)O)c2ccccc12 (stereo not given)
 : nt	40.4	-19.7%	4.8%	nt	13.2%	nt
- Cc1cc(NC(=O)NC2CCCN2S(=O)(=O)c2ccc(Cl)cc2)no1 (stereo not given)
 : -2.9	-2.2	-0.9%	-5.7%	13.3%	9.0%	4.4
- Cc1cc(/C=C2\SC(=S)NC2=O)cc(C)c1O
 : ?	26.3	-1.5%	-1.2%	13.3%	-47.1%[inhibitor]	13.8
- Cc1cc(C)c(NC(=O)CNC(=O)CNC(=O)C2CCCCC2)c(C)c1
 : nt	-8.3	-1.3%	2.0%	nt	33.5%	4.0
- C[C@@H](O)C#Cc1ccc2c(c1)O[C@H](CN(C)C(=O)Nc1ccccc1)[C@@H](C)CN([C@@H](C)CO)S2(=O)=O
 : nt	16.2	0.0%	nt	nt	?	nt
- CCOC(=O)CSc1nnc(Cc2ccccc2)n1Cc1ccco1
 : 12.6	20.8	-0.8%	6.5%	?	-10.4%	9.9
- O=C(N/C(=N\O)c1ccccc1)Nc1ccc(Cl)cc1
 : -2.4	0.4	-3.4%	17.4%	2.1%	-23.8%	-20.5
- Cc1c(N)cc(N)cc1C(=O)O
 : ?	19.6	nt	-1.7%	-20.3%	5.3%[15.4 µM]	6.0
- COc1ccc(-c2csc(NC(C)c3nc4cc(Cl)c(Cl)cc4n3CCOCCO)n2)cc1 (stereo not given)
 : nt	11.5	0.7%	0.6%	nt	nt	nt
- CC1=C/C(=N\OS(=O)(=O)c2ccccc2)C(C)=CC1=O
 : -3.2	3.9	1.6%	28.2µM*	-10.9%	-29.3%	17.0
- O=C(c1cc(-c2ccc(F)cc2)nc2ccccc12)N1CCN(C2CCS(=O)(=O)C2)CC1 (stereo not given)
 : nt	10.9	-19.1%	-2.3%	nt	?	-2.4
- C/C(=N\NC(=O)CNc1ccccc1)c1ccccc1
 : 1.0	-1.8	-2.7%	9.2%	14.1%	11.4%	-2.0
- O=C(CSc1nnc2n1CCCN2)c1ccc([N+](=O)[O-])cc1
 : 3.0	19.6	nt	-4.2%	-11.5%	?	2.5
- CCN(CC)S(=O)(=O)c1ccc(OC)c(NS(=O)(=O)c2cccc(C(=O)O)c2)c1
 : 1.2	4.6	2.5%	9.0%	10.3%	6.7%	1.9
- CC1CC(C)(C)CC2(C1)NC(=O)N(CC(=O)N1CCN(S(=O)(=O)c3cccc(Cl)c3Cl)CC1)C2=O (stereo not given)
 : nt	-0.8	-0.4%	-25.6%	nt	0.3%	nt
- CCCCc1nc2ccccc2c(N)c1CCC (tested in a mixture with another compound)
 : -1.5	45.4	?	7.3%	8.5%	9.4%[15.4 µM]	5.8
- CC(C)(C)C(=O)/C=C1\NC(=O)CS1
 : -0.5	18.2	nt	-3.5%	19.9%	30.9%[15.4 µM]	-1.8
- CCCCCc1nnc(NC(=O)NS(=O)(=O)c2ccc(C)cc2)s1
 : -1.8	2.6	nt	4.6%	11.1%	9.1%	-5.5
- COc1ccccc1N1CCN(C(=O)/C=C/c2ccc(C)cc2)CC1
 : 3.4	46.6	0.5%	-1.2%	-11.6%	23.1%	-20.8
- CCC(=O)Nc1ccc(-c2ccc(N3CCN(C)CC3)nn2)cc1
 : 4.4	0.8	-10.9%	6.2%	18.1%	1.1%	-3.0
- NS(=O)(=O)c1cccc(C(=O)NC2CCSc3ccccc32)c1 (stereo not given)
 : -3.8	-9.0	nt	5.6%	8.0%	-23.4%[15.4 µM]	-2.6
- CCOC(=O)[C@@H]1[C@H]2COc3ccccc3[C@@H]2N2C(=O)N(c3cccc(F)c3)C(=O)[C@@]12C
 : nt	2.8	0.1%	2.9%	nt	-56.3%[inhibitor]	nt
- COC(=O)[C@H](Cc1ccccc1)NC(=O)N1CCCCC1C (stereo not given in full)
 : 2.7	8.3	-0.3%	0.4%	-1.8%	-49.3%[inhibitor]	4.4
- COc1ccc2c(c1)c(C(=O)CN1CCC(C(N)=O)CC1)c(C)n2C
 : 0.3	-2.5	-1.3%	-6.9%	4.1%	-3.1%	0.9
- CCN(CC)S(=O)(=O)c1ccc(NC(=O)CN(c2cccc(C)c2)S(C)(=O)=O)cc1
 : 0.8	-15.1	0.6%	-20.5%	11.1%	-19.2%	5.9
- O=[N+]([O-])c1ccc2cccnc2c1
 : nt	10.6	0.2%	nt	nt	-8.0%	nt
- Cc1c(/C=N\NC(=O)C2COc3ccccc3O2)c2ccccc2n1C (stereo not given)
 : 2.1	-1.2	-1.2%	24.4%	-15.4%	-0.7%	-5.5
- COc1ccccc1CNC(=O)CCNS(=O)(=O)c1cccc2nsnc12
 : 0.3	-3.4&23.7	-0.3%&1.5%	-14.1%	5.0%	-32.4%	16.2
- CCC(CC)NC(=O)CSc1ccc(S(=O)(=O)N2CCOCC2)cn1
 : nt	9.5	-2.5%	7.6%	nt	?	-5.6
- COc1ccc(NC(=O)c2cc(-c3ccccc3Cl)on2)cc1
 : 2.1	-0.5	1.6%	?	10.9%	-15.3%	-5.9
- Cc1ccccc1NC(=O)Cn1nnc(-c2ccc(N3CCOCC3)cc2)n1
 : 3.6	7.2	-14.7%	4.6%	7.5%	10.3%	-12.7
- COC(=O)c1ccc(S(=O)(=O)N2CCC(O)CC2)n1C
 : -0.1	-10.9	nt	12.0%	4.6%	-3.2%	nt
- CCN(CC)C(=O)[C@H]1C[C@H](CC(=O)NCC23CC4CC(CC(C4)C2)C3)C(=O)N2CCc3c([nH]c4cc(-c5ccco5)ccc34)[C@]12C
 : nt	0.3	3.9%	-0.4%	nt	nt	nt
- O=C(O)Cn1nnn(-c2ccccc2)c1=S
 : 1.0	0.9	-1.0%	6.5%	5.3%	17.3%	-8.8
- Cc1cc(N=Cc2cc(Br)ccc2O)no1
 : 2.9	0.9	-0.9%	-3.0%	-10.9%	-7.0%	-8.1
- CC[C@]12c3[nH]c4cc(-c5ccco5)ccc4c3CCN1C(=O)[C@@H](CC(=O)NCc1ccco1)C[C@@H]2C(=O)N1CCN(C(=O)C2CC2)CC1
 : nt	-6.4	4.2%	-19.3%	nt	nt	nt
- O=C(NCc1ccc2c(c1)OCO2)C1CCCN(C(=O)c2ccc(Cl)cc2)C1 (stereo not given)
 : -1.3	-0.1	-1.9%	-3.4%	5.7%	?	-3.5
- CC(C)C(NC(=O)C1CCCCC1)C(=O)NC1CCN(Cc2ccccc2)CC1 (stereo not given)
 : 7.2	nt	nt	nt	2.5%	nt	4.2
- CCN1C(=O)/C(=C\c2nc3ccccc3c(=O)n2-c2ccccc2)c2ccccc21
 : 2.3	-7.1	-23.3%	8.2%	-3.4%	5.1%	0.5
- CCOC(=O)CNC(=O)N1CCCC(CNS(=O)(=O)c2cccs2)C1 (stereo not given)
 : 1.1	6.2	-0.3%	4.8%	5.1%	-11.7%	21.1
- Cc1ccc(S(=O)(=O)N2CCC(N3CCC(C)CC3)CC2)cc1
 : nt	-12.6	-0.5%	-0.1%	-7.8%	6.2%[15.4 µM]	3.0
- O=C(NCCCN1CCCC1)c1ccc2c(c1)N(Cc1ccccc1)CCS2
 : 0.7	-11.9	nt	2.3%	9.9%	-1.7%[15.4 µM]	1.8
- CCN(CC)CCCN(C(=O)Cn1nnc(-c2ccc(OC)c(OC)c2)n1)C(C(=O)NC(C)(C)C)c1ccc(F)cc1 (stereo not given)
 : 0.9	6.2	-2.2%	-0.1%	9.9%	-55.6%[inhibitor]	21.8
- Cc1ccccc1C(=O)Nc1nc2n(n1)C(c1ccccc1)CC(=O)N2 (stereo not given)
 : 0.0	8.3	-1.6%	13.8%	0.6%	-1.4%	1.7
